A1 apoptosis 2 = blocks A1, raising caspase activity; AID 2465; caspase activation, % (concentration not given with the values); MEF A1-2A-BIM cells, caspase-Glo luminescence, 3 h; percent of clofoctol response, DMSO zero; 24,000 tested, under 10 active; in the data active means caspase activation above about 5.9%;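 further: wells of about 30 µL received 50 nL stock; the first replicate is given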
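system = A1-2A-BIM-expressing MEF cells | quantity = 2500 MEF cells/well | dosing = 50 nL compound per well, pinned | schedule = overnight cell settling, then 3 h compound exposure, 37 °C | signal = luminescence from DEVD-luciferin Caspase-Glo reagent, 1:1 in 50 mM HEPES, 1 h RT | read-out = Caspase-3/7 activation, seen as rise in luminescence signal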
* marks the source's active call; other numbers are inactive results. An excerpt; the hit share may differ from the screen's.

Cc1noc(C)c1S(=O)(=O)Nc1ccc2c(c1)C(=O)N([C@@H](C)CO)C[C@H](C)[C@H](CN(C)S(=O)(=O)c1cccs1)OCCCC[C@H](C)O2
  A1 apoptosis 2: 1.2
C[C@@H]1CN([C@H](C)CO)C(=O)c2cc(NC(=O)CCN3CCOCC3)ccc2O[C@@H]1CN(C)S(=O)(=O)c1cn(C)cn1
  A1 apoptosis 2: 0.4
CC(C)NC(=O)N(C)C[C@@H]1OCCCC[C@H](C)Oc2ccc(NS(C)(=O)=O)cc2C(=O)N([C@H](C)CO)C[C@@H]1C
  A1 apoptosis 2: 1.3
CC(C)NC(=O)Nc1ccc2c(c1)C(=O)N([C@H](C)CO)C[C@H](C)[C@H](CN(C)S(=O)(=O)c1cn(C)cn1)OCCCC[C@@H](C)O2
  A1 apoptosis 2: 0.6
C[C@@H]1CN([C@@H](C)CO)C(=O)c2cc(NS(=O)(=O)c3cccs3)ccc2O[C@H]1CN(C)C(=O)Nc1ccc(C(F)(F)F)cc1
  A1 apoptosis 2: -0.1
C[C@H](CO)N1C[C@H](C)[C@H](CN(C)CC2CCCCC2)Oc2ccc(NC(=O)CCN3CCOCC3)cc2C1=O
  A1 apoptosis 2: -0.3
C[C@@H]1CN([C@@H](C)CO)C(=O)c2cc(NS(=O)(=O)c3ccccc3)ccc2O[C@@H](C)CCCCO[C@@H]1CN(C)Cc1ccccc1
  A1 apoptosis 2: -0.7
C[C@H]1CN([C@@H](C)CO)C(=O)c2cccc(NC(=O)Nc3ccc(F)cc3)c2O[C@@H]1CN(C)C(=O)Nc1ccc(C(F)(F)F)cc1
  A1 apoptosis 2: -0.6
C[C@@H]1CCCCO[C@H](CN(C)C(=O)Nc2ccc(C(F)(F)F)cc2)[C@H](C)CN([C@H](C)CO)C(=O)c2cc(NC(=O)CCC(F)(F)F)ccc2O1
  A1 apoptosis 2: -0.9
CCO[C@@H]1OC(C(=O)NCc2ccccc2)=C[C@H](C)[C@H]1CCCO
  A1 apoptosis 2: 0.0

O=C1CS(=O)(=O)C(c2ccccc2)N1c1cccc(Cl)c1 (stereo unspecified)
  A1 apoptosis 2: -0.6
C[C@@H]1CN([C@H](C)CO)C(=O)c2cccc(NC(=O)Nc3ccccc3)c2O[C@H]1CN(C)C(=O)Nc1ccc(C(F)(F)F)cc1
  A1 apoptosis 2: 0.1
Cc1ccc(S(=O)(=O)N(C)C[C@@H]2Oc3ccc(NC(=O)C4CCCCC4)cc3CC(=O)N([C@H](C)CO)C[C@@H]2C)cc1
  A1 apoptosis 2: 0.2
C[C@@H]1CN([C@H](C)CO)C(=O)c2cc(NC(=O)CCCCCC(=O)Nc3ccccc3N)ccc2O[C@@H]1CN(C)C
  A1 apoptosis 2: 0.0
C[C@@H]1CN([C@H](C)CO)C(=O)Cc2cc(N(C)C)ccc2O[C@@H]1CN(C)Cc1ccncc1
  A1 apoptosis 2: -0.4
C[C@H](CO)N1C[C@H](C)[C@H](CN(C)S(=O)(=O)c2cccs2)Oc2ccc(NC(=O)C3CCCCC3)cc2CC1=O
  A1 apoptosis 2: -0.8
C[C@@H]1CCCCO[C@H](CN(C)Cc2ccncc2)[C@@H](C)CN([C@H](C)CO)C(=O)c2cc(NS(=O)(=O)c3ccccc3)ccc2O1
  A1 apoptosis 2: -0.3
Cc1ccc(S(=O)(=O)N(C)C[C@H]2Oc3ccc(NC(=O)C4CCCCC4)cc3C(=O)N([C@@H](C)CO)C[C@H]2C)cc1
  A1 apoptosis 2: 0.6
COc1ccc(NC(=O)Nc2ccc3c(c2)CC(=O)N([C@@H](C)CO)C[C@@H](C)[C@@H](CN(C)S(=O)(=O)c2cn(C)cn2)O3)cc1
  A1 apoptosis 2: 1.8
CNC[C@@H]1Oc2ccc(NS(C)(=O)=O)cc2C(=O)N([C@H](C)CO)C[C@H]1C
  A1 apoptosis 2: 1.4

C[C@@H]1CCCCO[C@H](CN(C)C(=O)c2ccncc2)[C@@H](C)CN([C@H](C)CO)C(=O)c2cc(NC(=O)c3ccccc3)ccc2O1
  A1 apoptosis 2: 0.4
C[C@@H]1CN([C@@H](C)CO)C(=O)Cc2cc(NS(=O)(=O)c3cccs3)ccc2O[C@@H]1CN(C)Cc1ccc(Cl)c(Cl)c1
  A1 apoptosis 2: 1.2
C[C@@H]1CN([C@H](C)CO)C(=O)Cc2cc(NC(=O)Cc3cn(C)c4ccccc34)ccc2O[C@H]1CN(C)Cc1ccccc1
  A1 apoptosis 2: 1.1
CCCNc1ncnc2ccccc12
  A1 apoptosis 2: 0.0
CCCN(C)C[C@H]1OCCCC[C@@H](C)Oc2ccc(NC(=O)NC3CCCCC3)cc2C(=O)N([C@@H](C)CO)C[C@H]1C
  A1 apoptosis 2: -0.5
C[C@H](CO)N1C[C@H](C)[C@H](CN(C)Cc2ccc3c(c2)OCO3)Oc2ccc(NS(=O)(=O)c3cn(C)cn3)cc2C1=O
  A1 apoptosis 2: -0.4
Cc1noc(C)c1S(=O)(=O)N(C)C[C@H]1OCCCC[C@H](C)Oc2ccc(NC(=O)NC3CCCCC3)cc2C(=O)N([C@@H](C)CO)C[C@@H]1C
  A1 apoptosis 2: 0.7
Cc1ccc(S(=O)(=O)Nc2ccc3c(c2)C(=O)N([C@@H](C)CO)C[C@@H](C)[C@@H](CN(C)S(=O)(=O)c2cccs2)O3)cc1
  A1 apoptosis 2: 0.9
C[C@@H]1CN([C@H](C)CO)C(=O)Cc2cc(NC(=O)C3CCCCC3)ccc2O[C@@H]1CN(C)S(=O)(=O)c1ccc(Cl)cc1
  A1 apoptosis 2: 0.5
C[C@H](CO)N1C[C@H](C)[C@@H](CN(C)C(=O)Nc2ccccc2)Oc2ccc(NC(=O)Nc3ccccc3)cc2CC1=O
  A1 apoptosis 2: -0.4

O=C1c2ccccc2[C@](Cc2ccccc2I)(C(=O)NCc2ccccc2)[C@H](c2ccc(CO)cc2)N1C1CCCCC1
  A1 apoptosis 2: -0.9
C[C@@H]1CN([C@@H](C)CO)C(=O)CCCn2cc(nn2)CO[C@@H]1CN(C)Cc1ccc(C(F)(F)F)cc1
  A1 apoptosis 2: 1.9
C[C@H]1CCCCO[C@H](CN(C)C(=O)NC2CCCCC2)[C@@H](C)CN([C@@H](C)CO)C(=O)c2cc(NC(=O)Nc3ccc(F)cc3)ccc2O1
  A1 apoptosis 2: -1.1
COC(=O)CCCCCCC(=O)Nc1ccc(C2OC(CN(C)Cc3ccccc3)CC(c3ccccc3)O2)cc1 (stereo unspecified)
  A1 apoptosis 2: 0.7
Cc1noc(C)c1NC(=O)N(C)C[C@H]1OCCCC[C@@H](C)Oc2ccc(NC(=O)CCC(F)(F)F)cc2C(=O)N([C@H](C)CO)C[C@H]1C
  A1 apoptosis 2: -0.1
C[C@H]1CCCCO[C@@H](CN(C)Cc2ccc3c(c2)OCO3)[C@@H](C)CN([C@@H](C)CO)C(=O)c2cc(NC(=O)Nc3cccc4ccccc34)ccc2O1
  A1 apoptosis 2: 0.6
Cc1noc(C)c1S(=O)(=O)Nc1ccc2c(c1)CC(=O)N([C@H](C)CO)C[C@@H](C)[C@@H](CN(C)C(=O)Nc1ccc(F)cc1)O2
  A1 apoptosis 2: -0.7
O=C(NO)c1cccc(C(=O)N/N=C/c2ccccc2OCCO)c1
  A1 apoptosis 2: -0.8
C[C@H]1CN([C@@H](C)CO)C(=O)Cc2cc(NC(=O)C3CC3)ccc2O[C@@H]1CN(C)C(=O)Nc1ccc(F)cc1
  A1 apoptosis 2: -1.2
C[C@H](CO)N1C[C@H](C)[C@H](CN(C)S(=O)(=O)c2cccs2)OCCCC[C@H](C)Oc2ccc(NS(=O)(=O)c3ccc(Cl)cc3)cc2C1=O
  A1 apoptosis 2: -0.1

Part of the list above in order of count of non-hydrogen atoms, rising:
O=C(NO)c1cccc(C(=O)N/N=C/c2ccccc2OCCO)c1
  A1 apoptosis 2: -0.8
C[C@@H]1CN([C@@H](C)CO)C(=O)CCCn2cc(nn2)CO[C@@H]1CN(C)Cc1ccc(C(F)(F)F)cc1
  A1 apoptosis 2: 1.9
COC(=O)CCCCCCC(=O)Nc1ccc(C2OC(CN(C)Cc3ccccc3)CC(c3ccccc3)O2)cc1 (stereo unspecified)
  A1 apoptosis 2: 0.7
C[C@H](CO)N1C[C@H](C)[C@H](CN(C)S(=O)(=O)c2cccs2)OCCCC[C@H](C)Oc2ccc(NS(=O)(=O)c3ccc(Cl)cc3)cc2C1=O
  A1 apoptosis 2: -0.1
C[C@H]1CCCCO[C@H](CN(C)C(=O)NC2CCCCC2)[C@@H](C)CN([C@@H](C)CO)C(=O)c2cc(NC(=O)Nc3ccc(F)cc3)ccc2O1
  A1 apoptosis 2: -1.1
C[C@H]1CCCCO[C@@H](CN(C)Cc2ccc3c(c2)OCO3)[C@@H](C)CN([C@@H](C)CO)C(=O)c2cc(NC(=O)Nc3cccc4ccccc34)ccc2O1
  A1 apoptosis 2: 0.6

Other records follow.
compound | A1 apoptosis 2
C[C@@H]1CCCCO[C@H](CN(C)C(=O)Nc2ccc(C(F)(F)F)cc2)[C@H](C)CN([C@H](C)CO)C(=O)c2cc(NS(=O)(=O)c3cn(C)cn3)ccc2O1 | -1.8
C[C@H](CO)N1C[C@H](C)[C@H](CN(C)C(=O)Nc2ccc3c(c2)OCO3)Oc2c(NC(=O)Nc3ccc(F)cc3)cccc2C1=O | -0.8
C[C@@H]1CN([C@@H](C)CO)C(=O)Cc2cc(NC(=O)Nc3ccc(F)cc3)ccc2O[C@H]1CN(C)Cc1ccc(C(=O)O)cc1 | 0.8
Cc1noc(C)c1NC(=O)Nc1ccc2c(c1)C(=O)N([C@@H](C)CO)C[C@H](C)[C@@H](CN(C)S(=O)(=O)c1cn(C)cn1)OCCCC[C@H](C)O2 | -0.3
COc1ccc(S(=O)(=O)Nc2ccc3c(c2)C(=O)N([C@H](C)CO)C[C@@H](C)[C@@H](CN(C)Cc2ccncc2)OCCCC[C@@H](C)O3)cc1 | 0.6
C[C@H]1CN([C@@H](C)CO)C(=O)c2cc(NS(C)(=O)=O)ccc2O[C@@H]1CN(C)Cc1ccc(C(=O)O)cc1 | 0.3
C[C@@H]1CN([C@@H](C)CO)C(=O)Cc2cc(NS(=O)(=O)c3ccc(F)cc3)ccc2O[C@H]1CN(C)C(=O)Nc1cccc2ccccc12 | -0.3
Cc1ccc(S(=O)(=O)N(C)C[C@H]2Oc3ccc(NS(=O)(=O)c4c(C)noc4C)cc3CC(=O)N([C@@H](C)CO)C[C@@H]2C)cc1 | -0.8
O=C(O)CCCCCCC(=O)NN=C1CCCCCC1 | 1.5
CCCN(C)C[C@H]1OCCCC[C@@H](C)Oc2ccc(NS(=O)(=O)c3ccc(OC)cc3)cc2C(=O)N([C@@H](C)CO)C[C@H]1C | -0.4
C[C@@H]1CCCCO[C@@H](CN(C)C)[C@H](C)CN([C@H](C)CO)C(=O)c2cc(NS(C)(=O)=O)ccc2O1 | -1.1
C[C@@H]1CN([C@H](C)CO)C(=O)c2cccc(NC(=O)Nc3ccc(C(F)(F)F)cc3)c2O[C@@H]1CN(C)Cc1ccc(Cl)c(Cl)c1 | -0.6
COc1ccc(NC(=O)Nc2ccc3c(c2)C(=O)N([C@H](C)CO)C[C@H](C)[C@H](CN(C)S(=O)(=O)c2cccs2)O3)cc1 | 0.5
Cc1ccc(S(=O)(=O)Nc2ccc3c(c2)C(=O)N([C@@H](C)CO)C[C@H](C)[C@@H](CN(C)S(=O)(=O)c2ccc(F)cc2)O3)cc1 | -0.3
C[C@H]1CN([C@@H](C)CO)C(=O)c2cc(NC(=O)Nc3ccccc3)ccc2O[C@@H]1CN(C)C(=O)Nc1ccc2c(c1)OCO2 | -0.9
C[C@@H]1CN([C@H](C)CO)C(=O)c2cc(NC(=O)Nc3ccc(F)cc3)ccc2O[C@H]1CN(C)S(=O)(=O)c1ccccc1 | -0.6
CNC[C@H]1OCCCC[C@@H](C)Oc2ccc(NS(=O)(=O)c3ccccc3)cc2C(=O)N([C@H](C)CO)C[C@H]1C | -0.2
Cc1ccc(S(=O)(=O)N(C)C[C@@H]2Oc3c(NS(=O)(=O)c4ccccc4)cccc3C(=O)N([C@H](C)CO)C[C@@H]2C)cc1 | -0.3
C[C@@H]1CN([C@@H](C)CO)C(=O)Cc2cc(NS(=O)(=O)c3cccs3)ccc2O[C@H]1CN(C)S(=O)(=O)c1ccc(Cl)cc1 | 0.3
Cc1noc(C)c1NC(=O)N(C)C[C@H]1Oc2ccc(NC(=O)Nc3ccc(F)cc3)cc2CC(=O)N([C@@H](C)CO)C[C@H]1C | 1.5
COc1ccc(NC(=O)Nc2ccc3c(c2)C(=O)N([C@@H](C)CO)C[C@H](C)[C@@H](CN(C)Cc2ccc(-c4ccccc4)cc2)O3)cc1 | -0.2
C[C@@H]1CCCCO[C@@H](CN(C)C(=O)Nc2ccc3c(c2)OCO3)[C@H](C)CN([C@H](C)CO)C(=O)c2cc(NC(=O)Nc3ccc4c(c3)OCO4)ccc2O1 | 1.4
O=C(NN=C1CCCCCC1)c1ccccn1 | 0.6
NC(=O)[C@]1(CCS(=O)(=O)c2ccccc2)N=C(c2ccc(OCCCO)cc2)O[C@@H]1c1ccccc1 | 1.1
C[C@@H]1CN([C@@H](C)CO)C(=O)c2cc(NC(=O)Cn3cnnn3)ccc2O[C@H]1CN(C)Cc1ccc(Oc2ccccc2)cc1 | -1.3
Cc1noc(C)c1S(=O)(=O)Nc1ccc2c(c1)C(=O)N([C@H](C)CO)C[C@@H](C)[C@@H](CN(C)C(=O)c1ccncc1)OCCCC[C@@H](C)O2 | 0.7
C[C@@H]1CN([C@@H](C)CO)C(=O)Cc2cc(NC(=O)Nc3cccc4ccccc34)ccc2O[C@@H]1CN(C)Cc1ccc(C(=O)O)cc1 | -0.8
C[C@H]1CN([C@@H](C)CO)C(=O)c2cc(NS(=O)(=O)c3ccccc3)ccc2O[C@H]1CN(C)S(=O)(=O)c1cn(C)cn1 | -0.2
C[C@H](CO)N1C[C@H](C)[C@@H](CN(C)Cc2ccc(Cl)c(Cl)c2)Oc2ccc(NC(=O)CCCN(C)C)cc2C1=O | -1.3
C[C@@H]1CN([C@H](C)CO)C(=O)Cc2cc(NS(=O)(=O)c3ccccc3)ccc2O[C@H]1CN(C)Cc1ccc(Cl)c(Cl)c1 | -1.0
CCn1c2ccccc2c2cc(/C=N/NC(=O)CCCCCC(=O)Nc3ccccc3O)ccc21 | 0.1
